VACV mCherry inh – qHTS for Stage-Specific Inhibitors of Vaccinia Orthopoxvirus: mCherry Reporter Primary qHTS | Vaccinia virus mCherry reporter infection, fluorescence; about a quarter of the inactives have no number | Potency, µM (highest dose often 36.5 µM), for inactives: top-dose activity change, negative = inhibition, hits mostly inhibitors | actives 0.63% (n = 310,000) | AID 720579, 2013; active = well fitted inhibition curve with a large enough effect; inconclusive = small, poorly fitted or top-dose-only effect; inactive = no such curve, though single readings can be large or run the other way; tested in A549 cells; note: nearly all actives have a fitted effect of over 35% in size; inactives centre near -10
Vaccinia Venus – qHTS for Stage-Specific Inhibitors of Vaccinia Orthopoxvirus: Venus Reporter Primary qHTS. Vaccinia virus Venus reporter expression, fluorescence. actives 0.46% (n = 330,000). AID 720580, 2013. Potency, µM (series often up to 36.5 µM), for the others: at the top dose activity change, negative = inhibition, actives largely listed as inhibitors; active means well fitted inhibition curve with a large enough effect; inconclusive means small, poorly fitted or top-dose-only effect; inactive means no such curve, though single readings can be large or run the other way; tested in A549 cells; note: nearly all actives have a fitted effect of over 30% in size; inactives centre near -10
Numbers without * were called inactive; i = inactive; ? = inconclusive; . = no result given; & = joins results of further samples; [ ] = another dose, or the depositor's remark. % is set by controls: 0 for no effect and ±100 for the full control effect; potency is the fitted concentration of half-maximal effect.

cpd	compound	VACV mCherry inh	Vaccinia Venus
1	Cc1ccc(-n2ncc3c(N4CCN(C)CC4)ncnc32)cc1Cl	-7%	-8%
2	CC1CCC/C(=N\NC(=O)c2ccncc2)C1 (stereo not drawn)	i	1%
3	Cc1cc(OCC(=O)O/N=C(\N)Cc2cccs2)ccc1Br	-10%	-8%
4	O=C(CCN1C(=O)COc2ccccc21)NCCN1CCOCC1	-12%	-8%
5	O=C(Nc1ccccc1)C(=O)c1cn(CC(=O)N2CCCCC2)c2ccccc12	-12%	-4%
6	CC(C)(C)c1cccc(S(=O)(=O)N2CCN(c3nc(-c4cccs4)nc4ccccc34)CC2)c1	i	-14%
7	Cc1ccc(S(=O)(=O)C[C@@H]2OC[C@H](CO)N2S(=O)(=O)c2ccc(C)cc2)cc1	-18%	-8%
8	O=C(Cn1c(=O)nc(-c2ccccc2)c2ccccc21)NCCc1ccc(Cl)cc1	-27%	-15%
9	CC(C)C(=O)Nc1c2c(nc3c1CCC3)CCCC2	-16%[1.46 µM]	-10%
10	Cc1c(C(=O)NCc2cccc(C(F)(F)F)c2)sc(=O)n1Cc1ccc(S(=O)(=O)N(C)C)cc1	i	-4%
11	O=C(NCCc1ccccc1F)C1CC(=O)N(c2ccc3c(c2)OCCO3)C1 (stereo not drawn)	9%	-10%
12	Cc1cc(NS(=O)(=O)c2ccc(NC(=S)NC(=O)/C=C/c3ccccc3)cc2)no1	i	0%
13	CCOC(=O)c1cnn(-c2ccccc2)c1NC(=O)CCl	-22%	?
14	COc1cc([N+](=O)[O-])ccc1-c1ccc(/C=N/NC(=O)OC(C)(C)C)o1	-4%	8%
15	COCCOC(=O)C1=C(C)NC(=O)NC1C1CC=CCC1 (stereo not drawn)	-22%	-6%
16	CCOC(=O)c1cccc(NC(=O)c2ccc3snnc3c2)c1	-6%	-9%
17	COc1ccccc1/C=C1\SC(=S)N(C(C(=O)O)c2ccccc2)C1=O (stereo not drawn)	i	-7%
18	Cc1ccc(NC(=O)CSc2nc3c([nH]c4ccccc43)c(=O)n2C)cc1	-9%	?
19	CC/C(C)=N/Nc1nc2c(c(=O)[nH]c(=O)n2C)n1CCc1ccccc1	i	-5%
20	CN(C)c1ccc(/C=N/Nc2ccc(-n3ccnc3)nn2)cc1	.	-12%

cpd	compound	VACV mCherry inh	Vaccinia Venus
21	O=C(Nc1ccc2c(c1)OCCO2)c1cccn(Cc2cccc([N+](=O)[O-])c2)c1=O	?	-13%
22	CCN1CCN(c2ccc(NC(=O)COc3ccccc3Cl)cc2)CC1	-14%	-14%
23	COc1cc(Cl)c(C)cc1NC(=O)CCc1c(C)nc2cc(-c3cccc(F)c3)nn2c1C	5%	3%
24	CC(C)c1ccc(N(CC(=O)NCc2ccc(F)cc2)C(=O)c2snc(C(N)=O)c2N)cc1	?	-30%
25	NC1(C(=O)O)CCCc2ccc(N(CCCl)CCCl)cc21 (stereo not drawn)	-17%	3%
26	CCN(CC)C(=O)CSc1ccc(C(F)(F)F)cc1[N+](=O)[O-]	i	-11%
27	COc1ccccc1CNC(=O)COC(=O)c1cc(C)nc2ccccc12	i	-11%
28	CCc1ccc(OCC(=O)NCC(c2ccc(Cl)cc2)N2CCCCC2)cc1 (stereo not drawn)	-3%	-18%
29	CCCCN(C(=O)C1CC(=O)N(c2ccc3c(c2)OCCO3)C1)c1c(N)n(CCC)c(=O)[nH]c1=O (stereo not drawn)	i	-2%
30	COc1ccc(OC)c(NC(=O)Cn2c(CCC(=O)O)ccc2-c2ccc(C)cc2)c1	i	-7%
31	CCN(CC)C(=O)CCCSc1nnc(Nc2ccccc2F)s1	-26%	-21%
32	O=C1C=C(NC2CC2)C2(CCCCC2)O1	.	-7%
33	COc1cccc(N(CC(=O)Nc2ccccc2C)S(C)(=O)=O)c1	i	-10%
34	CCOC(=O)N1CCN(Cc2cc(=O)oc3ccc4ccccc4c23)CC1	.	-5%
35	CCc1cccc(NC(=O)COC(=O)CSc2ccc(C)cc2)c1	i	-17%
36	CN(CC(=O)Nc1cccc(F)c1)C(=O)c1ccncc1	-8%	11%
37	Cc1nnc(NC(=O)CSc2nnc(-c3ccco3)o2)s1	-3%	-1%
38	COc1cc(/C=C2\SC(=Nc3ccccc3OC)NC2=O)ccc1O	?	3%
39	COc1cc(/C=N/NC(=O)CNC(=O)c2ccncc2)ccc1O	i	-9%
40	CCOc1ccc(NC(=O)Nc2ccc3snnc3c2)cc1	-7%	-23%

cpd	compound	VACV mCherry inh	Vaccinia Venus
41	CN(C)S(=O)(=O)c1cccc(NC(=S)NNC(=O)c2cc3ccccc3cc2O)c1	?	-21%
42	CN(C)c1ccc(CN(Cc2ccco2)C(=O)c2ccc(C(C)(C)C)cc2)cc1	-9%	-6%
43	COc1ccc(N2CCN(C(c3ccco3)c3sc4nc(C)nn4c3O)CC2)cc1 (stereo not drawn)	-19%	-21%
44	CCOc1cccc2cc(-c3cn4c(n3)sc3ccccc34)c(=O)oc12	-10%	-11%
45	COc1ccc(OC)c(NC(=O)c2cccc(NC(=O)c3ccccc3)c2)c1	1%	-24%
46	CC(C)NC(=O)C1(O)c2ccccc2NC(=O)N1c1ccc(Cl)c(Cl)c1 (stereo not drawn)	-11%	-13%
47	O=C(N/N=C\C=C\c1ccco1)C1COc2ccccc2O1 (stereo not drawn)	-19%	-6%
48	COc1ccc(C2C(C(=O)Nc3cc(OC)c(OC)c(OC)c3)c3ccccc3C(=O)N2C)cc1 (stereo not drawn)	-9%	?
49	CC(C)C[C@H](N)c1cn([C@@H](Cc2cc3ccccc3[nH]2)C(=O)N2CCNCC2)nn1	-14%	2%
50	O=C(Nc1ccccc1Cl)C(Cl)C(=O)c1ccccc1 (stereo not drawn)	8%	3%
51	Cc1c(Cl)c([N+](=O)[O-])nn1CCCC(=O)Nc1sc2c(c1C#N)CCC2	0%	-24%
52	Cc1ccccc1CSc1nnc(C)c(=O)n1N	i	2%
53	CC(C)n1c(SCC(=O)Nc2ccccc2N2CCOCC2)nc2c1c(=O)n(C)c(=O)n2C	-1%	-11%
54	COc1ccc(C)cc1N(CC(=O)O)S(=O)(=O)c1ccc(C)cc1	-13%	-5%
55	CN(C)c1ccc(C(CC(=O)O)NC(=O)c2ccc(Cl)cc2)cc1 (stereo not drawn)	.	-25%
56	Cc1ccc(C)c(S(=O)(=O)c2nnn3c2nc(NC2CCCCC2)c2sccc23)c1	?	?
57	Cc1ccc(C(=O)N2C(=O)c3cccc(N)c3C2=O)o1	i	-1%
58	CCCCn1nnnc1SCC(=O)NCc1ccccc1	-15%	?
59	CCOC(=O)c1ccc(NC(=O)Cn2cc(C(=O)C3CC3)c3ccccc32)cc1	-7%	-8%
60	CCc1nc2ccc(C(=O)NCc3ccccc3OC)cn2c1N(CC)CCOC	21%	-1%

The last five compounds of the section before are carried over, then new ones follow.
cpd	compound	VACV mCherry inh	Vaccinia Venus
56	Cc1ccc(C)c(S(=O)(=O)c2nnn3c2nc(NC2CCCCC2)c2sccc23)c1	?	?
57	Cc1ccc(C(=O)N2C(=O)c3cccc(N)c3C2=O)o1	i	-1%
58	CCCCn1nnnc1SCC(=O)NCc1ccccc1	-15%	?
59	CCOC(=O)c1ccc(NC(=O)Cn2cc(C(=O)C3CC3)c3ccccc32)cc1	-7%	-8%
60	CCc1nc2ccc(C(=O)NCc3ccccc3OC)cn2c1N(CC)CCOC	21%	-1%
61	Cc1ccc(C(=O)Nc2cc(Cl)ccc2Oc2ccccc2)cc1[N+](=O)[O-]	-4%	3%
62	COCCN1C(=O)N(C)[C@@H](c2ccccc2)C(C(C)=O)=C1C	-14%	-5%
63	CSc1ccc(C2c3[nH]c4ccccc4c3CCN2C(=O)CCC2CCCC2)cc1 (stereo not drawn)	-9%	8%
64	COc1ccc(/C=C/C(=O)NCc2ccc(F)cc2)cc1S(=O)(=O)N1CCOCC1	-9%	-9%
65	COc1ccccc1N1CCN(C(=O)c2cc(-c3ccccc3O)on2)CC1	-15%	1%&0%
66	Cc1c(C(=O)N2CCC(n3nccc3NC(=O)C3CC3)CC2)[nH]c2ccc(Cl)cc12	-11%	-2%
67	CCC(CO)Oc1cc(NCc2cccc(F)c2)c2ncn(C(C)C)c2c1 (stereo not drawn)	?	-25%
68	CNC(=S)N1N=C(c2ccc(C)cc2)CC1c1ccc(OC)c(OC)c1 (stereo not drawn)	-14%	0%
69	CC(=O)Oc1ccc(-c2cccc(C(=O)OCC(=O)Nc3ccccc3Oc3ccccc3)c2)cc1	-10%	-25%
70	O=C(CCc1nc2ccccc2s1)OCc1ccccc1F	-7%	-7%
71	O=C(O)C(Cc1ccccc1)N=Cc1c(O)c2ccccc2oc1=O (stereo not drawn)	-21%	-19%
72	CS(=O)(=O)N(CC(=O)N1CCN(c2ccccc2)CC1)c1cc(C(F)(F)F)ccc1Cl	-2%	-23%
73	CNC(C)C#Cc1c(-c2cc(OC)c(OC)c(OC)c2)noc1C (stereo not drawn)	-5%&-3%	-13%&-12%
74	CC(OC(=O)c1ccc([N+](=O)[O-])cc1)C(=O)NCC1CCCCC1 (stereo not drawn)	-5%	-1%
75	O=C(NCc1ccc(Cl)cc1)C1CC(O)CN1S(=O)(=O)c1ccc(Cl)cc1 (stereo not drawn)	-17%	-3%
76	COc1ccc2oc(=O)c(-c3nnc(NCc4ccco4)s3)cc2c1	?	-20%
77	Cc1cc(C)nc(Nc2nc(C(N)CCc3ccccc3)cs2)n1 (stereo not drawn)	-5%	-16%
78	COc1cccc(NC(=O)CSc2nnc(NC(=O)C3CCC3)s2)c1	-11%	7%
79	O=C(Nc1sc2c(c1C(=O)NCC1CCCO1)CCC2)c1cc(=O)c2cc(Cl)ccc2o1 (stereo not drawn)	11%	-4%
80	Cc1ccc(CC(=O)Nc2cccc(C#N)c2)cc1	i	0%

cpd	compound	VACV mCherry inh	Vaccinia Venus
81	COc1ccc(-c2cn(Cc3ccc4ccccc4c3)nn2)cc1	i	-16%&-4%
82	Cc1ccc(-n2nc(CO)c(C(=O)NCC(c3ccccc3)c3ccccc3)n2)cc1	-13%	-11%
83	C=C1CCC(N(O)c2cc(C)on2)C(=C)CCC2C1CC2(C)C (stereo not drawn)	-27%	-13%
84	O=C(CSc1nc(-c2ccco2)cc(C(F)(F)F)n1)N1CCSCC1	.	5%
85	COc1ccc(C(=O)COC(=O)CNC(=O)c2cccs2)cc1Br	i	-6%
86	Cc1cccc2cc(CNCC3CCCO3)c(Cl)nc12 (stereo not drawn)	-7%	-7%
87	Cc1ccccc1NCCC(=O)Nc1ccc(F)cc1	?	-4%
88	CC(C)CCNC(=O)C1CC2Cn3c(nc4cc(Cl)c(Cl)cc43)C2N1C (stereo not drawn)	-1%	-24%
89	COc1ccc(Cn2c(C)c(C)c(C#N)c2NC(=O)Nc2ccc(Cl)cc2)cc1	?	?
90	C/C(=N/OCO/N=C(/C)c1ccc(F)cc1)c1ccc(F)cc1	-19%	-3%
91	C[C@H](NS(=O)(=O)c1ccc(F)cc1)C(=O)OCC(=O)c1c(N)n(C)c(=O)n(C)c1=O	-10%	-10%
92	O=C(Nc1cc(S(=O)(=O)N2CCOCC2)ccc1Cl)c1cc([N+](=O)[O-])ccc1Cl	-27%	-7%
93	CCc1nc2c(OCC(N)=O)cccn2c1N(C)C(=O)C(C)C	-11%	5%
94	O=C(NC1CCCCC1)C1c2ccccc2OCC(=O)N1Cc1ccc2c(c1)OCO2 (stereo not drawn)	12%	-2%
95	COc1ccc(-c2[nH]ncc2CN2CCC(c3ccncc3)CC2)cc1F	i	-6%
96	O=C(Cn1nc(-c2ccccc2)ccc1=O)Nc1ccc(N2CCN(C(=O)c3cccs3)CC2)cc1	-2%	-11%
97	Cc1cc(C)c2oc(-c3cccc(NC(=O)c4ccco4)c3)nc2c1	-6%	-9%
98	COc1cc2c(cc1OC)CN(CC(=O)NC(=O)NC1CCCCC1)CC2	-11%	-5%
99	N=c1c2ccccc2nnn1-c1cccc(C(F)(F)F)c1	-3%	-8%
100	COc1ccc(-n2c(=O)c3ccccc3c3ccccc3c2=O)c(OC)c1	-11%	-8%

In the list so far, these contain a cyano group.
cpd	compound	VACV mCherry inh	Vaccinia Venus
51	Cc1c(Cl)c([N+](=O)[O-])nn1CCCC(=O)Nc1sc2c(c1C#N)CCC2	0%	-24%
80	Cc1ccc(CC(=O)Nc2cccc(C#N)c2)cc1	i	0%
89	COc1ccc(Cn2c(C)c(C)c(C#N)c2NC(=O)Nc2ccc(Cl)cc2)cc1	?	?

Additional results.
cpd	compound	VACV mCherry inh	Vaccinia Venus
101	O=C(CCNC(=O)c1ccco1)NCCc1c[nH]c2ccccc12	i	-14%
102	Cc1nn(Cc2ccc(C(=O)NC(C)(C)C)o2)c(C)c1Br	.	?
103	COc1ccc(C(=O)/C=C2/C(=O)Nc3ccccc32)cc1OC	i	-24%
104	CCn1c(SCC(=O)Nc2cccc(F)c2)nnc1-c1cc2cc(Br)ccc2o1	.	-10%
105	CC(=O)Nc1ccc(NC(=O)CSc2ncc(C(=O)Nc3ccc(Cl)cc3)c(=O)n2C)cc1	i	-10%
106	C=CCc1ccc(OCCOc2cccc3cccnc23)c(OC)c1	i	-8%
107	CC1=C(C(=O)N(C)C)C(c2ccccc2OC(F)F)NC(=O)N1 (stereo not drawn)	i	-5%
108	CC(C)N(C)c1ncnc2c1ncn2[C@H]1CN(Cc2cccs2)C[C@@H](CO)O1	-11%	4%
109	N#Cc1nc(COc2ccccc2Cl)oc1NCc1ccco1	-21%	-4%

Screening data from PubChem BioAssay.
